VDR inh: inhibitors of human vitamin D receptor. P11473. VDR-SRC2-3 peptide fluorescence polarization, 2 h. Potency, µM, for inactives: max response, negative = inhibition, actives largely listed as inhibitors. 400,000 tested, 0.93% active; active = well fitted inhibition curve with a large enough effect; inconclusive = small, poorly fitted or top-dose-only effect, or another doubt; inactive = no such curve, though single readings can be large or run the other way; also: series mostly up to about 120 µM
Target sequence (P11473 whole entry, looked up): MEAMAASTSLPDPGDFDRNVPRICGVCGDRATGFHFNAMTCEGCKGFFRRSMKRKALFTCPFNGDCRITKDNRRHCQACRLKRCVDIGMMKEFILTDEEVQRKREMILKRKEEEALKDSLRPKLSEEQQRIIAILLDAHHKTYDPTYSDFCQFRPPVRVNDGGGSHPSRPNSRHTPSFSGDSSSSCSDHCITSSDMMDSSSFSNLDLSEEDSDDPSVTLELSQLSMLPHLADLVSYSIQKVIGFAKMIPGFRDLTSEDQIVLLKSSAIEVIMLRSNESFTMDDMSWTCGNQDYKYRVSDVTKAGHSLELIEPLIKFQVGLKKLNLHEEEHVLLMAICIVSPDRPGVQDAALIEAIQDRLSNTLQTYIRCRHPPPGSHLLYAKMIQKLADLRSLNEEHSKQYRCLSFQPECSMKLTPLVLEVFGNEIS
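FP read-out; VDR + SRC2-3 coactivator peptide; 23 nl compound by pintool; 2 h RT incubation; reagents held at 4 deg C, protected from light.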
* = called active by the depositor; ? = inconclusive; & = joins results of further samples; [ ] = another dose, or the depositor's remark. % is scaled to controls: 0 for no effect and ±100 for the full control effect; potency is read from the fitted curve at half-maximal effect.

VDR inh	Molecule
-6%	CC(OC(=O)Cc1n[nH]c(=O)c2ccccc12)C(=O)Nc1ccc(S(N)(=O)=O)cc1 (centres undefined)
-6%	CCOC(=O)C1=NNC2(c3ccc(C)cc3)C(=O)N(c3ccc(Cl)cc3)C(=O)C12 (centres undefined)
?	O=C(Cc1c(F)cccc1Cl)Nc1ccccc1C(=O)N1CCCCC1
17%	C=CCn1c(COc2ccccc2F)nnc1SCC(=O)N1CC(=O)Nc2ccccc21
8%	O=C(OCc1nnc(-c2ccccc2)o1)c1cn(-c2ccccc2)nc1-c1ccccc1
9%	CS/C(=N\NC(N)=O)c1ccccc1
3%	CN1C(=O)C(C)(C)c2cc(S(=O)(=O)N3CCC(C(=O)NCc4ccc(Cl)cc4)CC3)ccc21
-17%	CCOC(=O)c1ccccc1NC(=O)CSc1nc2cn(CC)nc2c(=O)n1Cc1ccc(Cl)cc1
10%	O=C(c1cc(-c2ccccc2O)on1)N1CCCCCC1
-11%	C=C[C@@H]1c2cc(C)ccc2N(S(=O)(=O)c2ccc(C)cc2)[C@H](c2ccccc2)C1(C#N)S(=O)(=O)c1ccccc1 (some centres undefined)
-12%	CCOc1ccccc1C(=O)Nc1nnc(C(C)C)s1
-10%	Cc1cc(C)n(CC(=O)Nc2ccc3c(c2)OCO3)c(=O)c1C#N
3%	COc1ccc(C(=O)/C(C#N)=N/Nc2ccc([N+](=O)[O-])cc2)cc1
-4%	O=C(N/C(=C/c1cn(-c2ccccc2)nc1-c1ccccc1)C(=O)N1CCOCC1)c1ccc(Cl)cc1Cl
23%	C=CCn1c(SCc2cc(=O)n3ccsc3n2)nc2sc(C)c(C)c2c1=O
4%	CN(C)C(=O)c1ccc(NC(=O)c2ccccc2SCC(=O)N2CCCC2)cc1
-5%	O=C(c1cccc([N+](=O)[O-])c1)c1ccc2c(c1)OCCOCCOCCOCCO2
-20%	CCn1c(CCn2c3ccccc3c3ccccc32)n[nH]c1=S
5%	CCOc1cccc(C(=O)Nc2cc(C)c(O)c(-c3nc4ncccc4o3)c2)c1
-1%	CCOC(=O)c1nnn(CC(=O)Nc2cc(C)cc(C)c2)c1C(=O)OCC
?	O=S(=O)(Nc1ccccc1Cl)c1ccc(F)cc1
9%	CCOC(=O)c1c(C)n(C)c2ccc(OC)c(NC(=O)CN3CCC(C(=O)OCC)CC3)c12
1%	C=C1C(=O)O[C@@]23[C@H]1CC[C@@H](C)[C@@H]2CC[C@@]1(C)O[C@@H]31
-2%	O=C(Nc1ccc2nc(-c3ccccn3)c(-c3ccccn3)nc2c1)N1CCOCC1
-1%	Cc1cccc(C2N(c3nccs3)C(=O)C3CCCN32)c1 (centres undefined)
-13%	Cc1cccc(/C=N/c2sc3c(c2C#N)CCN(Cc2ccccc2)C3)c1O
12%	Cc1ccc(NC(=O)c2ncoc2-c2ccco2)cc1Cl
?	COc1cc(/C=C2\SC(=O)N(Cc3ccc(F)cc3)C2=O)cc([N+](=O)[O-])c1O
-8%	Cc1cc(C)cc(NC(=O)C/C(N)=N/O)c1
0%	Cc1ccccc1C(=O)N1CCN(c2ccc(NC(=O)c3ccc4c(c3)OCCO4)cc2)CC1
-14%	OC(CNCc1ccccc1)Cn1ccc2ccccc21 (centres undefined)
-22%	CCN(CC(=O)Nc1ccccc1C(F)(F)F)C(=O)c1cc(-c2ccccc2)nn1-c1ccccc1
-16%	CC(C)CCN(Cc1ccco1)C(=O)c1cc2c(Cl)nc3ccccc3c2s1
-18%	CN(C(=O)COC(=O)c1ccc2c(c1)OCO2)C1CCCCC1
-4%	CCN(CC(=O)Nc1c(F)cccc1F)C(=O)/C=C/c1ccc(Br)s1
-2%	CCOC(=O)N1CCC(Nc2nc(OC)nc(OC)n2)CC1
-9%	Cn1cc(CN2CCC(C(=O)Nc3cccc(-c4cscn4)c3)CC2)cn1
10%	O=C(CCCCn1c(=O)[nH]c2ccsc2c1=O)NCCc1ccccc1
2%	Cc1c(Cl)cccc1NC(=O)C(CCS(C)(=O)=O)N1Cc2ccccc2C1=O (centres undefined)
50µM*	c1ncc(-c2ccoc2)c(NC2CC2)n1
-9%	O=C(Nc1ccc(C(=O)Nc2ccccc2Cl)cc1)c1cccnc1
-8%	O=C(NNC(=S)Nc1ccccc1Cl)c1ccccc1
3%	O=[N+]([O-])c1cc(S(=O)(=O)N2CCOCC2)ccc1NS(=O)(=O)c1ccccc1
-5%	CC1(C)CC2(CCO1)CNC(=O)O2 (centres undefined)
1%&-2%	CCCCCCCCCC(=O)OCC(CO)OC(=O)CCCCCCCCC (centres undefined)
-16%	COCc1nnc(NC(=O)c2ccc(S(=O)(=O)N(C)Cc3ccccc3)cc2)o1
14%	CCSc1nnc(NC(=O)c2cnccn2)s1
12%	COC(=O)CSc1nc2ccc(N)cc2s1
-14%	Cc1ccc(C(=O)NCC(=O)OCC(=O)NC2CCCC(C)C2C)s1 (centres undefined)
4%	CCN(c1ccccc1)S(=O)(=O)c1cccc(C(=O)NCC(c2ccc(F)cc2)N2CCOCC2)c1 (centres undefined)
3%	COc1cccc(-n2c(SCC(=O)Nc3cccc(Cl)c3)nc3c(oc4ccccc43)c2=O)c1
24%&2%	COc1ccc(CNS(=O)(=O)c2cc3c(cc2C)N(C)CCO3)cc1
2%	COc1ccccc1/C=N/NC(=O)c1nnn(-c2nonc2N)c1CSC1=NCCS1
-3%	O=C(COC(=O)c1ccc(O)cc1)Nc1cccc(S(=O)(=O)N2CCCCC2)c1
4%	COc1cccc(NC(=O)c2nn(C)c(C(=O)Nc3cccc(OC)c3)c2[N+](=O)[O-])c1
21%	CC1CCCCN1C(=O)c1cccc(NC(=O)c2ccccc2)c1 (centres undefined)
-8%	O=C(NCC1CC1)c1ccc(Nc2nc3ccc(Br)cc3[nH]2)cc1
-20%	O=C(Nc1cc(C(F)(F)F)ccc1N1CCOCC1)c1cccnc1Cl
-8%	CN1CCN(S(=O)(=O)c2ccc(NC(=O)COc3ccccc3)cc2)CC1
17%	NS(=O)(=O)c1ccc(NC(=S)NC(=O)c2ccc3c(c2)OCO3)cc1

Later entries.
VDR inh	Molecule
5%	Cc1c(NC(=O)c2ccccc2)cc(C(C)C)c(O)c1S(=O)(=O)c1ccc(Cl)cc1
16%	CCOC(=O)CSc1nc2ccc(NC(=O)c3ccccc3F)cc2s1
-11%	Cc1cc(Nc2ccc(C)c(C)c2)c2ccccc2n1
-3%	COc1ccc2cc3cc(C(=O)N4CCN(c5ccccn5)CC4)oc3nc2c1
-8%	Cc1ccc(C)c(NC(=O)CCc2ccc(S(=O)(=O)NC3CCCCC3)cc2)c1
-6%	CCC1CCCCN1S(=O)(=O)c1ccc(NC(=O)c2cccnc2)cc1 (centres undefined)
6%	Cc1ccc(C)c(N2N=C(C(=O)Nc3ccc(S(=O)(=O)N4CCCC4)cc3)CCC2=O)c1
-6%	Cc1ccc(C(=O)N/C(=C\c2ccccc2)C(=O)NCc2cccnc2)cc1
-8%	COC(=O)C1CCN(C(c2ccc(OC)c(OC)c2)c2sc3nc(C)nn3c2O)CC1 (centres undefined)
-6%	O=C(/C=C/c1ccccc1)Nc1cccc(C(=O)NCCCCc2ccccc2)c1
-12%	O=C(/C=N/O)Nc1ccccc1
-1%	Cc1ccc(N2C(=O)NC(NS(=O)(=O)c3ccc(C)cc3)(C(F)(F)F)C2=O)cc1 (centres undefined)
-8%	CCCC(=O)NC(c1ccccc1)c1ccc2cccnc2c1O (centres undefined)
-5%	C=CCC[C@H](Cc1ccc(F)cc1)C(=O)OC[C@@H](NC(=O)[C@@H](CC=C)CC(=O)N(CCO)Cc1ccccc1)C(C)(C)C
7%	COc1ccccc1N1CCN(CC(O)COc2cc(C)cc(C)c2)CC1 (centres undefined)
5%	O=C(CCS(=O)(=O)c1ccccc1)N1CCN(c2cccc(C(F)(F)F)c2)CC1
15%	COC(=O)CNC(=O)CSc1nnc(C)c(=O)[nH]1
29%	Cc1cccc(Nc2nc(C)nc3c2oc2ccccc23)c1
1%	O=C(NCc1ccc2c(c1)OCO2)C1CCCN1S(=O)(=O)c1ccc(F)cc1 (centres undefined)
-12%	CCN1C[C@@H]2[C@@H]3C(=O)N(C)C(=O)[C@@H]3[C@](C)(C1=O)N2C(=O)c1ccc(C(F)(F)F)cc1
-5%	CC(=O)Nc1c(C(=O)Nc2ccccc2F)oc2ccccc12
0%	CCOc1ccc(C(=O)NC2CCN(C(=O)Nc3ccc(F)cc3)CC2)cc1
-2%	Cc1occc1C(=O)NNS(=O)(=O)c1ccc([N+](=O)[O-])cc1
2%	O=S(=O)(c1ccc2ccccc2c1)n1nc(-c2ccco2)nc1NCc1ccc(F)cc1
4%	Cc1ccc(S(=O)(=O)N2CCC(C(=O)OCC(=O)N3CCc4ccccc43)CC2)cc1
-16%	COC(=O)c1ccccc1-c1ccc(/C=N/NC(N)=O)o1
3%	Cn1c(=O)c2c(SCc3c(F)cccc3Cl)nc(CC(C)(C)C)nc2n(C)c1=O
-1%	COc1cccc(OC)c1C(=O)OCC(=O)NCc1ccco1
16%	CN(C(=O)c1ccc(OC2CCN(Cc3ccccn3)CC2)cc1)C1CCCCC1
5%	Cc1ccc(/C=N/NC(=O)c2ccc(NC(=O)c3ccccc3Cl)cc2)o1
-2%	CCOC(=O)C1(C)C=C(Nc2ccccc2)C(=O)N1c1ccccc1 (centres undefined)
-27%	c1ccc(-c2nnnn2-c2ccccc2)cc1
6%	COCCNC(=O)CSc1nc2cc(OC)c(OC)cc2c(=O)n1CCC1=CCCCC1
?	Cc1ccn2cc(CCNC(=O)COc3ccccc3)nc2c1
-7%	CCc1ccc(N2C(=O)CN(CC(=O)OC)C2=S)cc1
-13%	CCc1ccc(NC(=O)c2sc3nc4c(cc3c2N)CN(CC)CC4)cc1

Part of the list above in order of molecular weight, low to high:
VDR inh	Molecule
-12%	O=C(/C=N/O)Nc1ccccc1
-27%	c1ccc(-c2nnnn2-c2ccccc2)cc1
15%	COC(=O)CNC(=O)CSc1nnc(C)c(=O)[nH]1
-16%	COC(=O)c1ccccc1-c1ccc(/C=N/NC(N)=O)o1
29%	Cc1cccc(Nc2nc(C)nc3c2oc2ccccc23)c1
?	Cc1ccn2cc(CCNC(=O)COc3ccccc3)nc2c1
-5%	CC(=O)Nc1c(C(=O)Nc2ccccc2F)oc2ccccc12
-1%	COc1cccc(OC)c1C(=O)OCC(=O)NCc1ccco1
-8%	CCCC(=O)NC(c1ccccc1)c1ccc2cccnc2c1O (centres undefined)
-2%	Cc1occc1C(=O)NNS(=O)(=O)c1ccc([N+](=O)[O-])cc1
-2%	CCOC(=O)C1(C)C=C(Nc2ccccc2)C(=O)N1c1ccccc1 (centres undefined)
7%	COc1ccccc1N1CCN(CC(O)COc2cc(C)cc(C)c2)CC1 (centres undefined)
-6%	Cc1ccc(C(=O)N/C(=C\c2ccccc2)C(=O)NCc2cccnc2)cc1
-13%	CCc1ccc(NC(=O)c2sc3nc4c(cc3c2N)CN(CC)CC4)cc1
5%	Cc1ccc(/C=N/NC(=O)c2ccc(NC(=O)c3ccccc3Cl)cc2)o1
-6%	O=C(/C=C/c1ccccc1)Nc1cccc(C(=O)NCCCCc2ccccc2)c1
1%	O=C(NCc1ccc2c(c1)OCO2)C1CCCN1S(=O)(=O)c1ccc(F)cc1 (centres undefined)
16%	CN(C(=O)c1ccc(OC2CCN(Cc3ccccn3)CC2)cc1)C1CCCCC1
-12%	CCN1C[C@@H]2[C@@H]3C(=O)N(C)C(=O)[C@@H]3[C@](C)(C1=O)N2C(=O)c1ccc(C(F)(F)F)cc1
5%	O=C(CCS(=O)(=O)c1ccccc1)N1CCN(c2cccc(C(F)(F)F)c2)CC1
-1%	Cc1ccc(N2C(=O)NC(NS(=O)(=O)c3ccc(C)cc3)(C(F)(F)F)C2=O)cc1 (centres undefined)
3%	Cn1c(=O)c2c(SCc3c(F)cccc3Cl)nc(CC(C)(C)C)nc2n(C)c1=O
4%	Cc1ccc(S(=O)(=O)N2CCC(C(=O)OCC(=O)N3CCc4ccccc43)CC2)cc1
-8%	COC(=O)C1CCN(C(c2ccc(OC)c(OC)c2)c2sc3nc(C)nn3c2O)CC1 (centres undefined)
2%	O=S(=O)(c1ccc2ccccc2c1)n1nc(-c2ccco2)nc1NCc1ccc(F)cc1
-5%	C=CCC[C@H](Cc1ccc(F)cc1)C(=O)OC[C@@H](NC(=O)[C@@H](CC=C)CC(=O)N(CCO)Cc1ccccc1)C(C)(C)C

Other compounds follow.
VDR inh	Molecule
-11%	CCCCc1nc(SCC(=O)Nc2ncccn2)n[nH]1
-4%	COC(=O)C1[C@@H](OC)C(OC(=O)COc2ccc(OC)cc2)C[C@@H]2CN3CCc4c([nH]c5cc(OC)ccc45)[C@H]3C[C@H]12 (some centres undefined)
63%[activator]	Cc1cc(C)c2c(N)c(C(=O)Nc3ccccc3Br)sc2n1
4%	Cc1ccc(C)c(OCCn2cc(C(=O)O)c3ccccc32)c1

Quoted at random: two entries already listed.
VDR inh	Molecule
-4%	COC(=O)C1[C@@H](OC)C(OC(=O)COc2ccc(OC)cc2)C[C@@H]2CN3CCc4c([nH]c5cc(OC)ccc45)[C@H]3C[C@H]12 (some centres undefined)
4%	Cc1ccc(C)c(OCCn2cc(C(=O)O)c3ccccc32)c1

Only part of the results is shown; rates above refer to the full screens.
